AF4-AF9 inh – inhibitors of AF4 peptide binding to AF9, primary screen, biochemical, AlphaScreen, biotin-AF4 peptide, FLAG-AF9, single point | actives 0.47% (n = 350,000) | Protein AF-9 (Homo sapiens), P42568 | inhibition, % at 10 µM;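 active = every replicate reaching a set inhibition limit, whatever the replicate mean, cut at about 25% in these data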;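 note: 0% = plate neutral control median and 100% = total signal loss; the record names both 10 and 1 µM as test concentration; the first replicate is given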
Target sequence (P42568 whole entry, looked up): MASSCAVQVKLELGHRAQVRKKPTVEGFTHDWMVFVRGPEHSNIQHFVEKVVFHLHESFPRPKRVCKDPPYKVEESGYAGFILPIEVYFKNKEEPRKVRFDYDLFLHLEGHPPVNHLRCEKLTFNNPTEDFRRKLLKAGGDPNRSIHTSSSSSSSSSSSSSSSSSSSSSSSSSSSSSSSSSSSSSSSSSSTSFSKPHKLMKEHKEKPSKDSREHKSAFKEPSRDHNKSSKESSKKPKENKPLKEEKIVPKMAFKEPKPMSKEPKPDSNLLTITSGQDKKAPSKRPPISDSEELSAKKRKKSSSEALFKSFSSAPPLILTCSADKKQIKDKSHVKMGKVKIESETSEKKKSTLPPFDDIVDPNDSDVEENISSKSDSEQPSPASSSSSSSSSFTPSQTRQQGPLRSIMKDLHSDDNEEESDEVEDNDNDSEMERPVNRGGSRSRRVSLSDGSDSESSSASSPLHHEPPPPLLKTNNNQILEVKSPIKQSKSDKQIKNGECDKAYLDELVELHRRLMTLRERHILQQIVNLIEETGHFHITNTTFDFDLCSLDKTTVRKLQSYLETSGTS
Ecoli rRNA inh – reduced GFP signal of wild-type E. coli, primary screen, bacterial rRNA inhibitor project, GFP/RFP fluorescence, OD600, single point; E. coli WT GFP vs humanized-ribosome RFP mutants, 24 h; hits give low values; DMSO median 0, no signal -100; GFP signal change (wild-type ribosome), % (concentration not given with the values); actives 1.6% (n = 350,000);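 active = significant combined selectivity score with lowered wild-type GFP, culture density cut under 30%, mutant RFP and density less affected; inactive = any of these conditions unmet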; note: one replicate is shown; some compounds called inactive have numbers as strong as hits
Ecoli rRNA inh OD600 – also measured in Ecoli rRNA inh; calls as there; OD600 change, %; measured here: OD600 growth;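 optical density of the mix in the first replicate; 0 = DMSO median and -100 = no signal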
Ecoli rRNA inh RFP – also measured in Ecoli rRNA inh; calls as there; RFP signal change, %; measured here: RFP humanized mutant strains;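 first replicate; 0 = DMSO median and -100 = no signal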
* marks the source's active call; other numbers are inactive results.

SMILES	AF4-AF9 inh	Ecoli rRNA inh	Ecoli rRNA inh OD600	Ecoli rRNA inh RFP
C[C@H](O)C#Cc1cnc2c(c1)C(=O)N([C@H](C)CO)C[C@@H](C)[C@H](CN(C)Cc1ccccn1)O2	0.4	3	1	1.0
C[C@@H](NC(=O)C[C@@H]1C=C[C@H](NC(=O)c2cccnc2)[C@@H](CO)O1)c1ccccc1	-14	2	5	1.4
COCc1cn(CC(=O)c2sc(NC(=O)C(C)(C)C)nc2C)nn1	-2.1	1	6	-2.9
CCCC#Cc1ccc([C@H]2[C@H](CO)N3C(=O)CN(C(=O)NCCC)C[C@@H]23)cc1	0.3	2	4	-0.5
COC(=O)c1ccc(N2C(c3cc(OC)cc(OC)c3)=Cc3ccc(-c4cnc(OC)nc4)cc3C2CC(=O)C2CC2)cc1 (configuration not stated)	-8.7	4	13	1.3
CN(C(=O)c1cccc(NC(=O)Cc2ccc(NC(=O)C3CCN(C(=O)C4CCCCC4)CC3)cc2)c1)C1CCCC1	1.3	3	-9	9.6
COCC(=O)N1CC2(CCN(S(C)(=O)=O)CC2)c2c(n(C)c3cc(OC)ccc23)[C@@H]1CO	-0.3	3	9	0.5
CC(=O)N(C)C[C@@H]1Oc2cc(C#CC3(O)CCCC3)ccc2S(=O)(=O)N([C@@H](C)CO)C[C@@H]1C	-3.0	-2	8	-2.7
CN(C)CCCNC(=O)C[C@H]1C=C[C@H](NC(=O)Cc2cccnc2)[C@H](CO)O1	-1.0	5	-2	-0.9
C[C@H](CO)N1C[C@H](C)[C@H](CN(C)CC2CC2)Oc2ccc(NC(=O)c3ccncc3)cc2CC1=O	-2.5	4	13	0.7
COc1ccc2c3c(n(C)c2c1)[C@@H](CO)N(C(=O)Nc1ccc(F)cc1)CC31CN(C(=O)NC2CCCC2)C1	-3.0	-5	-6	1.7
Cc1cccc(-c2noc(-c3csc([C@@H]4C[C@H](O)[C@@H](CO)O4)n3)n2)c1	2.7	-5	0	-1.8
C[C@@H]1CN([C@H](C)CO)S(=O)(=O)c2ccc(/C=C/c3ccccc3)cc2O[C@@H]1CN(C)C(=O)Nc1cc(F)ccc1F	1.3	-4	4	-1.0
Cc1noc(C)c1NC(=O)N(C)C[C@@H]1Oc2ccc(NC(=O)Nc3ccc(C(F)(F)F)cc3)cc2CC(=O)N([C@H](C)CO)C[C@H]1C	-4.8	1	-4	-3.4
CC1=C(C(=O)N(C(C)C)C(C)C)CC(CC(=O)NC(c2ccccc2)c2ccccc2)C(=O)N1Cc1ccc(F)cc1 (configuration not stated)	-1.2	6	8	0.6
O=C(Nc1cccc(C(F)(F)F)c1)c1ccc2sc([C@H]3C[C@H](O)[C@@H](CO)O3)nc2c1	-1.9	-66	-76	-29
C[C@@H]1CN([C@@H](C)CO)C(=O)c2cccc(NS(=O)(=O)c3ccccc3)c2O[C@@H]1CN(C)CC1CC1	-1.1	3	7	-0.9
COC(=O)C[C@H]1CC[C@@H]2[C@@H](COc3ccc(NC(=O)c4cc(C)on4)cc3C(=O)N2C)O1	-1.6	-4	-3	-0.6
C/C=C/c1ccc([C@@H]2[C@H](CO)N(Cc3cncnc3)C23CN(C(=O)CC2CC2)C3)cc1	-10	4	-2	-0.1
C[C@@H]1CN([C@H](C)CO)C(=O)c2cccc(NC(=O)c3nc4ccccc4s3)c2O[C@@H]1CN(C)S(=O)(=O)c1ccccc1	-3.2	-2	-2	2.3
C[C@H](CO)N1C[C@H](C)[C@@H](CN(C)C(=O)C2CC2)Oc2ncc(C#CCc3ccccc3)cc2C1=O	-12	5	-4	0.0
C[C@@H]1CCCCO[C@@H](CN(C)Cc2ccncc2)[C@H](C)CN([C@@H](C)CO)C(=O)c2cc(NC(=O)NC3CCCCC3)ccc2O1	-0.2	-5	3	1.6
COc1cccc(S(=O)(=O)N2C[C@H](O)COC[C@H]3O[C@@H](CC(=O)N4CCOCC4)CC[C@@H]32)c1	-11	3	-5	-2.9
COc1cccc(S(=O)(=O)Nc2ccc(C(O)(C(F)(F)F)C(F)(F)F)cc2)c1	0.3	-34	-43	-8.7
CCOc1cc2c(cc1O)C(=NO)CC1C2CCC2(C)C(O)CCC12 (configuration not stated)	-3.2	-6	-9	7.7
COCC(=O)Nc1ccc2c(c1)C(=O)N(C)C[C@@H](OC)[C@@H](C)CN(CC1CC1)[C@H](C)CO2	-0.1	2	0	-1.9
COCCNC(=O)C1(C)Cc2c(-c3ccc(N(C)C)cc3)ccnc2O1 (configuration not stated)	-1.1	-19	-34	-15
COc1ccc(S(=O)(=O)N(C)C[C@H]2Oc3c(NC(=O)CCCCCC(=O)Nc4ccccc4N)cccc3C(=O)N([C@@H](C)CO)C[C@H]2C)cc1	-1.3	-2	-3	3.2
COc1cccc(-c2ccc3c(c2)[C@@H]2[C@@H](CCN2S(=O)(=O)c2ccc(F)cc2)[C@@H](CO)N3C)c1	2.0	3	3	1.2
C[C@H](O)C#Cc1ccc2c(c1)O[C@@H](CN(C)C)[C@@H](C)CN([C@H](C)CO)S2(=O)=O	-3.6	2	17	0.7
Cc1cccc(C(=O)N2CCC(=O)N([C@H](COCc3ccccc3)Cc3ccccc3)CC2)c1	-3.8	-37	-57	-4.7
CO[C@@H]1CN(C)C(=O)c2ccc(NC(=O)c3ccno3)cc2OC[C@H](C)NC[C@H]1C	-18	5	3	-0.6
CCOC(=O)c1cc2cc(OC)ccc2n1C1CCN(C)CC1	3.6	2	0	2.0
CC(O)(c1ccc(F)c(F)c1)c1nc(-c2ccccc2)cs1 (configuration not stated)	-7.6	-30	-66	-4.7
C[C@@H]1CN([C@H](C)CO)C(=O)c2cc(NC(=O)Cc3ccccc3)ccc2O[C@H]1CN(C)Cc1ccc(C(=O)Nc2ccccc2N)cc1	-2.3	1	3	-3.2
C[C@@H]1CN([C@@H](C)CO)C(=O)Cc2cc(NS(=O)(=O)c3ccccc3)ccc2O[C@@H]1CN(C)Cc1ccc2c(c1)OCO2	0.3	2	-6	4.8
Cc1cc(C)n2c(NC3CCCC3)c(-c3ccc(F)cc3)nc2n1	2.2	16	16	6.2
COCC(=O)Nc1ccc2c(c1)OC[C@H](C)N(Cc1ccncc1)C[C@H](C)[C@@H](OC)CN(C)C2=O	1.3	-2	5	-2.9
O=C(Nc1ccccc1F)N1CC(=O)N2[C@@H](CO)[C@H](c3ccc(-c4ccccc4)cc3)[C@@H]2C1	-0.4	-1	3	-0.8
COC(=O)c1ccc2cc(C)cc(C)c2n1	-5.5	1	12	-3.0
C[C@H](NC(=O)C[C@H]1CC[C@H](NC(=O)c2cccnc2)[C@@H](CO)O1)c1ccccc1	0.3	0	-1	-0.7
C[C@@H]1CCCCO[C@H](CN(C)S(=O)(=O)c2ccc(Cl)cc2)[C@@H](C)CN([C@@H](C)CO)C(=O)c2cc(NS(C)(=O)=O)ccc2O1	1.0	-6	-2	-1.1
Cc1noc(C)c1NC(=O)Nc1ccc2c(c1)C(=O)N([C@@H](C)CO)C[C@H](C)[C@@H](CN(C)C(=O)C1CCCCC1)OCCCC[C@@H](C)O2	1.7	2	9	-0.8
CCS(=O)(=O)N1CCC2(CC1)CN(C(=O)Nc1c(C)noc1C)[C@H](CO)c1[nH]c3cc(OC)ccc3c12	-6.1	0	6	3.7
CCNC(=O)C1(C)CCN(C(=O)c2cccc(C#N)c2)C1 (configuration not stated)	-1.8	7	14	0.4
COc1ccc(NC(=O)N(C)C[C@H]2Oc3ccc(N(C)C)cc3C(=O)N([C@@H](C)CO)C[C@H]2C)cc1	2.4	-1	4	1.1
CCCC#Cc1ccc2c(c1)O[C@H](CN(C)Cc1cccnc1)[C@H](C)CN([C@H](C)CO)S2(=O)=O	7.6	-17	-35	17
C[C@]12c3[nH]c4ccc(Cl)cc4c3CCN1C(=O)[C@@H](CC(=O)NCC13CC4CC(CC(C4)C1)C3)C[C@@H]2C(=O)N1CCCCC1	0.8	5	4	-1.6
N=c1c(S(=O)(=O)c2ccccc2)cc2c(=O)n3ccccc3nc2n1C1CCCCC1	-3.3	-1	3	-0.2
C[C@H](CO)N1C[C@H](C)[C@H](CN(C)C(=O)Nc2cccc3ccccc23)Oc2c(NC(=O)Nc3ccccc3)cccc2C1=O	4.3	-12	-9	0.2
COc1ccccc1-c1ccc([C@H]2[C@@H](CO)N(C(=O)C3CCCC3)[C@H]2C#N)cc1	-1.5	-4	-23	14
O=C(CC(F)(F)F)N1C[C@@H]2[C@H](c3ccccc31)[C@H](CO)N2C(=O)Cc1cccnc1	-0.7	4	12	-0.3
C[C@@H]1CN([C@@H](C)CO)C(=O)c2cc(-c3ccncc3)cnc2O[C@@H]1CN(C)C(=O)C1CCOCC1	-3.2	5	4	-0.1
CC(=O)N1CC[C@@H]2[C@H]1c1cc(-c3cccc(F)c3)ccc1N(C)[C@@H]2CO	1.2	1	-2	-1.4
O=C(CN1CCN(C(=O)CNC(=O)c2ccc(N3CCCC3=O)cc2)CC1)Nc1cccc(F)c1	-3.9	5	15	-1.6
O=C(C[C@@H]1CC[C@@H](NC(=O)Nc2cc(F)ccc2F)[C@H](CO)O1)NCc1ccc2c(c1)OCO2	-23	-9	-3	-2.8
O=C([C@@H]1N[C@@H]2c3ccc(-c4ccccc4)c(=O)n3C[C@@H]2[C@H]1CO)N1CCOCC1	-2.8	3	2	0.9
CNC[C@@H]1Oc2ccc(NS(=O)(=O)c3ccc(OC)cc3)cc2C(=O)N([C@@H](C)CO)C[C@@H]1C	-2.0	-3	-5	1.8
C[C@@H]1CN([C@@H](C)CO)C(=O)c2cc(NC(=O)CCCN(C)C)ccc2O[C@@H]1CN(C)Cc1ccc(C(F)(F)F)cc1	3.7	-1	-4	-1.1
COc1ccc(NC(=O)N(C)C[C@H]2Oc3ncc(-c4cccnc4)cc3C(=O)N([C@H](C)CO)C[C@H]2C)cc1	-4.2	-4	-4	-1.6

Seven entries picked at random from those above:
SMILES	AF4-AF9 inh	Ecoli rRNA inh	Ecoli rRNA inh OD600	Ecoli rRNA inh RFP
O=C([C@@H]1N[C@@H]2c3ccc(-c4ccccc4)c(=O)n3C[C@@H]2[C@H]1CO)N1CCOCC1	-2.8	3	2	0.9
N=c1c(S(=O)(=O)c2ccccc2)cc2c(=O)n3ccccc3nc2n1C1CCCCC1	-3.3	-1	3	-0.2
O=C(C[C@@H]1CC[C@@H](NC(=O)Nc2cc(F)ccc2F)[C@H](CO)O1)NCc1ccc2c(c1)OCO2	-23	-9	-3	-2.8
O=C(CC(F)(F)F)N1C[C@@H]2[C@H](c3ccccc31)[C@H](CO)N2C(=O)Cc1cccnc1	-0.7	4	12	-0.3
COc1ccc(NC(=O)N(C)C[C@H]2Oc3ccc(N(C)C)cc3C(=O)N([C@@H](C)CO)C[C@H]2C)cc1	2.4	-1	4	1.1
CCCC#Cc1ccc2c(c1)O[C@H](CN(C)Cc1cccnc1)[C@H](C)CN([C@H](C)CO)S2(=O)=O	7.6	-17	-35	17
C[C@H](NC(=O)C[C@H]1CC[C@H](NC(=O)c2cccnc2)[C@@H](CO)O1)c1ccccc1	0.3	0	-1	-0.7

Other structures follow.
SMILES	AF4-AF9 inh	Ecoli rRNA inh	Ecoli rRNA inh OD600	Ecoli rRNA inh RFP
C[C@@H]1CN([C@H](C)CO)C(=O)Cc2cc(NS(=O)(=O)c3ccc(F)cc3)ccc2O[C@@H]1CN(C)Cc1ccc(C(=O)Nc2ccccc2N)cc1	-0.9	-4	-8	3.8
CCCNC(=O)N1CC2(CCN(C(=O)c3cccc(F)c3)CC2)c2c([nH]c3cc(OC)ccc23)[C@H]1CO	5.8	-7	-3	1.9
C/C=C/c1ccc([C@H]2[C@H](CO)N3C(=O)CN(C(=O)Nc4ccc(F)cc4)C[C@@H]23)cc1	-2.1	5	29	0.4
CCS(=O)(=O)Nc1ccc2c(c1)C(=O)N(C)[C@@H]1CC[C@H](CC(=O)N[C@@H]3CCN(Cc4ccccc4)C3)O[C@H]1CO2	-1.4	2	1	-1.2
C[C@H]1CN([C@@H](C)CO)C(=O)c2cc(NC(=O)Nc3ccc4c(c3)OCO4)ccc2O[C@H]1CN(C)S(C)(=O)=O	-1.7	2	3	1.2
COc1ccc(CN(C)C[C@H]2Oc3c(NS(C)(=O)=O)cccc3C(=O)N([C@@H](C)CO)C[C@H]2C)cc1	-0.4	4	19	-2.9
CN(C)CC(=O)N1[C@H](CO)[C@H](c2ccccc2-c2cccc(C(=O)N(C)C)c2)[C@@H]1C#N	-1.8	2	-1	-3.0
O=C(C[C@H]1CC[C@@H](NC(=O)CN2CCOCC2)[C@H](CO)O1)NCCc1ccccc1	-1.5	2	8	-0.7
C[C@@H]1CN([C@@H](C)CO)C(=O)Cc2cc(NC(=O)Nc3ccccc3)ccc2O[C@H]1CN(C)C	1.3	3	3	-1.2
Cc1ccccc1-c1cc2nc(NCCN3CCCC3)n(C)c(=O)c2s1	7.7	2	-7	5.8
C[C@H]1CN([C@@H](C)CO)C(=O)c2cccc(NC(=O)Nc3ccc(C(F)(F)F)cc3)c2O[C@H]1CN(C)S(=O)(=O)c1cn(C)cn1	-2.4	-6	-13	-1.3
COc1ccc2c3c([nH]c2c1)[C@H](CO)N(C(C)=O)CC31CCN(C(=O)c2ccc3c(c2)OCO3)CC1	7.0	-3	4	-0.9

Compound activity as filed in PubChem.

Not all compounds are listed, so the mix of outcomes need not match the whole.
